# Source: PubChem BioAssay (National Center for Advancing Translational Sciences (NCATS))
# HTT prom inh – inhibitors of huntingtin promoter activity; 48,000 tested, 0.93% active; HEK293 HTT promoter firefly luciferase reporter (activity 0% = vehicle and -100% = no light), 24 h; Potency, µM (titrated, usually from 57.5 µM), inactives show top-dose activity change, negative = inhibition, hits mostly inhibitors; active means well fitted inhibition curve with a large enough effect; inconclusive means small, poorly fitted or top-dose-only effect; inactive means no such curve, though single readings can be large or run the other way; further: nearly all actives have a fitted effect of over 50% in size
#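 Firefly luciferase readout (Dual-Glo, 10 min RT) after 24 h, 37 °C compound exposure (final up to 57.5 uM) of HEK293 reporter cells cultured 24 h beforehand; PTC124 at 50 uM final as control inhibitor; activity scaled vehicle 0%, zero RLU -100%.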
# PMP22 txn prim – modulates PMP22 transcription in S16 Schwann cells. 43,000 tested, 2% active. Potency, µM (titrated, usually from 57.5 µM), inactives show top-dose activity change, negative = inhibition, most hits filed as inhibitors. S16 Pmp22-F2sN Schwann cells (luciferase reporters placed in the Pmp22 gene), FLuc/NLuc coincidence luminescence, 24 h; active = clear falling dose curves in both reporters; inconclusive = both reporters move, but less clearly or upward; inactive = either reporter flat; the % is the NLuc reporter signal; further: on the % scale 0 is the no-effect control and ±100 the full control effect; some results filed as inactive show a strong effect at the top dose
#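 Rat S16 Pmp22-F2sN cells, 500-1,000/well in phenol red-free DMEM + 10% FBS, compound-treated 24 h (37C, 5% CO2). Luminescence: FLuc read, Stop&Glo added, NLuc read.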
# * = called active by the depositor; ? = inconclusive; · = no result given; [ ] = dose if it differs, or a comment. Potency means the concentration at half of the fitted maximal effect.
# Preview (4 entries):
SMILES,HTT prom inh,PMP22 txn prim
COc1cc(Cl)c(C)cc1NS(=O)(=O)c1c(C)nc2sccn2c1=O,-8%,-19%
Fc1ccccc1OCc1nc(-c2ccc(-n3cccc3)cc2)no1,15%,4%
COc1cc(OC)c(NC(=O)CSc2cc(=O)n(C)c3ccc(Cl)cc23)cc1Cl,-18%,-24%
COc1ccc(-n2c(-c3ccc(C)cc3)cc3c2CC(C)(C)CC3=O)c(OC)c1,?,?

# The list itself (from the top)
SMILES,HTT prom inh,PMP22 txn prim
COc1cc(Cl)c(C)cc1NS(=O)(=O)c1c(C)nc2sccn2c1=O,-8%,-19%
Fc1ccccc1OCc1nc(-c2ccc(-n3cccc3)cc2)no1,15%,4%
COc1cc(OC)c(NC(=O)CSc2cc(=O)n(C)c3ccc(Cl)cc23)cc1Cl,-18%,-24%
COc1ccc(-n2c(-c3ccc(C)cc3)cc3c2CC(C)(C)CC3=O)c(OC)c1,?,?
Cc1ncc(COC(=O)C(C)C)c2cc(C(=O)Nc3ccccc3C(F)(F)F)c(=O)oc12,-3%,-23%
CCCCCCOc1ccccc1C(N)=O,-2%,·
CCOC(=O)c1[nH]c(C)c(CCC(=O)N2CCN(c3cc(C)ccc3C)CC2)c1C,?,?
CSc1cccc(NC(=O)N2CCN(c3cc(-c4noc(C)n4)ccc3C)CC2)c1,?,-3%
O=C(COc1ccc(F)cc1)NCCc1nc2ccccc2[nH]1,-7%,-5%
CN1CCN(CCCNC(=O)c2cnn(-c3ccccc3)c2-n2cccc2)CC1,-13%,-10%
Cc1ccc(S(=O)(=O)c2c(C)nn(-c3ccccc3)c2OC(=O)c2ccccc2F)cc1,-14%,8%
CCOC(=O)c1c(C)[nH]c(C)c1S(=O)(=O)N1CCC(C(=O)N2CCN(c3ccccc3F)CC2)CC1,-22%,-4%
CCOc1c(Cl)cc(Cl)cc1CNCCSc1nnnn1C,-11%,?
CCOc1cc(S(=O)(=O)NCCc2c(C)[nH]c3ccc(C)cc23)ccc1F,-5%,-13%
CC(C)Oc1ccc(CNC(=O)C2=Cc3ccccc3OC2)cc1,8%,-10%
CCCN(C(=O)c1noc2c1COc1ccc(C)cc1-2)c1ccc(Cl)c(Cl)c1,-14%,?
Cc1cc(C)c(NC(=O)Nc2ccc3snnc3c2)c(C)c1,?,?
O=C(Nc1ccccc1Br)N1CCN2CCCCC2C1 (centres undefined),12%,0%
Cc1nn(S(=O)(=O)c2ccccc2)c(C)c1S(=O)(=O)N1CCC(C)CC1,-19%,11%
CC(=O)c1cc2c(cc1N/C(=N/S(=O)(=O)c1ccc(C)cc1)c1ccc(F)cc1)OCO2,-24%,?
CCC(Sc1nc2ccncc2[nH]1)C(=O)Nc1cc(C)ccc1C (centres undefined),-35%,?
Cc1cc(C)cc(NC(=O)CN2C(=O)CSc3ccc(S(=O)(=O)N4CCCC4)cc32)c1,-11%,-7%
CCN(Cc1ccccc1)C(=O)Cn1c(=O)cc(C)c2c(C)nn(-c3cccc(F)c3)c21,-26%,?
O=C(c1cc2ccc3cccnc3c2[nH]1)N1CCCCC1,-50%,-6%
O=C(Cn1c(=O)oc2cc(S(=O)(=O)N3CCCCC3)ccc21)NCc1ccc(F)cc1,?,?
COc1ccc(-c2cc(C(=O)NCCc3ccccc3)c3cc(C(C)C)ccc3n2)cc1,13%,-3%
COc1ccc(-c2cn3nc(SCC(=O)Nc4ccc(C)c(Cl)c4)ccc3n2)cc1,29%,-16%
CCOC(=O)c1cccc(NC(=O)c2oc3c(c2C)-c2nn(CC)cc2CC3)c1,22%,?
Cc1ccccc1C(=O)OCc1cc(=O)n2nc(C3CCCCC3)sc2n1,-9%,4%
CCOC(=O)c1cnc(NCc2ccc(Cl)cc2)c2ccccc12,?,-7%
O=C(NCCc1nc2ccccc2n1Cc1ccc(Cl)cc1Cl)c1ccco1,?,?
COC(=O)c1ccccc1NS(=O)(=O)c1cc2c(cc1C)N(C)CCO2,-1%,3%
O=C(O)CCNC(=O)c1ccccc1,3%,·
CCOC(=O)c1c(S(=O)(=O)NCC(=O)N(C)c2ccc(C)cc2)c(C)n(C)c1C,0%,-1%
COc1ccc(S(=O)(=O)NCC(c2ccco2)N2CCN(c3ccccc3)CC2)cc1OC (centres undefined),-30%,-5%
Cc1cc(C)cc(NC(=O)C(Cc2ccccc2)NS(=O)(=O)c2ccc3c(c2)CCC(=O)N3)c1 (centres undefined),-15%,-8%

# Full records, looked up by structure. Order of values: HTT prom inh, PMP22 txn prim
# COC(=O)c1ccccc1NS(=O)(=O)c1cc2c(cc1C)N(C)CCO2 is entered as -1%, 3%
# Cc1cc(C)cc(NC(=O)C(Cc2ccccc2)NS(=O)(=O)c2ccc3c(c2)CCC(=O)N3)c1 (centres undefined) is entered as -15%, -8%

# Other compounds follow:
SMILES,HTT prom inh,PMP22 txn prim
Cc1ccc(Nc2nn3c(=O)c4cc5c(cc4nc3s2)OCO5)cc1Cl,-6%,5%
Cc1ccc(Cn2c(C)c(CNCc3ccccc3F)c(C(=O)O)c2C)cc1,-12%,-2%
CC(C)c1nnc(N2C(=O)c3oc4ccccc4c(=O)c3C2c2ccccc2F)s1 (centres undefined),-11%[11.5 µM],?
COc1cc(NC(=O)c2nc3ccccc3n(C)c2=O)cc(OC)c1OC,24%,-3%
Cc1cc(C)c(Nc2ncnc3c2cnn3C)c(C)c1,-25%,?
Cn1c(=O)c2c(nc(N3CCOCC3)n2Cc2ccccc2)n(C)c1=O,-5%,-7%
COc1ccc(NC(=O)CCS(=O)(=O)c2ccc3nc(C)sc3c2)cc1Cl,-4%,-2%
COc1ccc(NC(=O)CSc2nc(-c3ccc(OC)c(OC)c3)[nH]c2-c2ccc(C)cc2)cc1,-20%,-1%
CCCCCCNC(=O)c1c[nH]c2ccc(S(=O)(=O)N(C)c3ccc(C(C)C)cc3)cc2c1=O,-1%,?
CC(C)CN(c1ccccc1)S(=O)(=O)c1nnc(NC(=O)c2ccco2)s1,-18%,-28%
CC(NC(=O)c1nn(C)c2c1CSc1ccccc1-2)c1ccccc1 (centres undefined),21%,-4%
O=S(=O)(c1ccc(Cl)cc1)c1nc(-c2cccc(Br)c2)oc1NCc1ccccc1,?,-21%
COc1ccc(NC(=O)c2ccc(-c3nc(CSc4ccccc4)c(C)o3)cc2)c(OC)c1,?,?
Cc1ccc(CNc2nc(-c3ccco3)nn2S(C)(=O)=O)cc1,63%[activator],8%
O=C(COCc1cc(-c2ccc3c(c2)OCO3)on1)NCc1ccccc1Cl,-3%,-21%
COc1cccc(Cc2nc3ccccc3nc2SCC(=O)N2CCCc3ccccc32)c1,-2%,?
COCCNS(=O)(=O)c1cc(-c2nn3c(C)nnc3c3ccccc23)ccc1C,2%,?
CC1C(=O)N2CCCc3cc(S(=O)(=O)N4CCC(C(N)=O)CC4)cc1c32 (centres undefined),-19%,-6%
CCN(CC)CCOc1ccc2c(c1)C(=O)c1cc(OCCN(CC)CC)ccc1-2,1%,·
O=C(Nc1cc(-c2nc3cc(Cl)ccc3o2)ccc1Cl)c1cc([N+](=O)[O-])ccc1N1CCOCC1,3%,0%
COc1ccc(CN2C(=O)N(c3ccc(F)cc3)C(=O)C2CC(=O)Nc2ccccc2)cc1 (centres undefined),-26%,10%
CCOc1ccc(NC(=O)CSc2nc3nc(C)c(Cc4ccccc4)c(C)n3n2)cc1,-9%,-22%
CCOC(=O)c1[nH]c(C)c(C(=O)NCc2ccc(F)cc2)c1C,-37%,-7%
Cc1ccc(S(=O)(=O)Nc2cc3c(cc2C)n(C)c(=O)c(=O)n3C)c(C)c1,-19%,?
COc1ccccc1CNC(=O)Nc1ccc2c(c1)N(C)C(=O)c1ccccc1S2,?,?
O=C(O)c1ccc(Nc2nc3ccccc3n3cnnc23)cc1,28%,8%
COC(=O)c1c(N)n(-c2ccc(OC)c(OC)c2)c2nc3ccccc3nc12,-3%,-18%
CC1CCN(S(=O)(=O)c2ccc3c(c2)c(=O)c(C(=O)NC(C)c2ccccc2)cn3C)CC1 (centres undefined),-34%,?
CCOC(=O)c1ccc(NC(=O)CSc2nccn2-c2ccc(OCC)cc2)cc1,-33%,?
O=C1c2[nH]nc(-c3ccccc3O)c2C(c2cccc(Br)c2)N1Cc1ccncc1 (centres undefined),?,?
Cc1ccc(NC(=O)C(C)Sc2nc(-c3ccccc3)c(C#N)c(=O)[nH]2)c(C)c1 (centres undefined),-9%,-118%
Cc1noc(/C=C/c2ccccc2F)c1S(=O)(=O)N1CCC(C(=O)N2CCOc3ccccc32)CC1,-8%,?
Cc1ccc(C)c(NC(=O)CCc2nc(-c3ccc(C(C)(C)C)cc3)no2)c1,?,?
CCC(=O)Nc1cc(-c2cccc(C)c2)nn1-c1ccccc1,-12%,?
COc1cc(NC(=O)CSc2nc(-c3ccc(C(C)C)cc3)no2)cc(OC)c1,?,9.1µM*
Cc1cccc(C)c1-n1ncc(C(=O)N2CCN(c3ncccn3)CC2)c1C1CCN(C(=O)OC(C)(C)C)CC1,-5%,?
COc1ccc(C2CC(=O)N(CC(=O)Nc3cccc(C)c3C)c3ccccc3S2)cc1OC (centres undefined),?,12µM*
Cc1ccc(Cn2ccnc2SCC(=O)Nc2nnc(C)s2)cc1,-27%,9%
CCOc1ccc(CNCCCSc2nnnn2C)cc1OC,-15%,-4%
CCc1nn2c(=O)cc(COC(=O)c3cccc(NC(=O)COc4ccccc4F)c3)nc2s1,?,-25%
O=C(NC1CCCC1)c1ccc(CSc2nc3cccnc3n2Cc2ccccc2F)cc1,?,?
C[C@H](CCC(=O)O)[C@H]1CCC2C3C[C@H](O)[C@@H]4C[C@H](O)CC[C@]4(C)C3CC[C@@]21C (some centres undefined),-3%,·
CCOc1ccc(C2C=C(c3cccc(OC)c3)Nc3nnnn32)cc1 (centres undefined),-28%,-2%
COC(=O)c1c(NC(=O)COc2ccc(C(C)C)cc2)sc2c1CCCC2,11%,-1%
CCOC(=O)c1c(C)[nH]c(CCC(=O)NC(C)c2ccccc2)c1C (centres undefined),-11%,15%
O=C(Cc1ccc(F)cc1)N1CCC(c2nc3c(nnn3Cc3ccc(Cl)cc3)c(=O)[nH]2)CC1,-26%,2%
CC1CCCN(c2nc(-c3ccccc3O)nc3ccccc23)C1 (centres undefined),-5%,-14%
Cn1cc(-c2ccncc2)c(-c2ccc(OCc3ccc4ccccc4n3)cc2)n1,?,·
O=c1c2ccccc2n2c(-c3cccc(F)c3)nnc2n1Cc1ccccc1,0%,9%
COc1ccc(C)cc1NC(=O)c1ccc(NS(=O)(=O)c2c(C)noc2C)cc1,-3%,-25%
COc1ccc(OC)c(CNC(=O)CN2N=C(c3ccc(Cl)cc3)CCC2=O)c1,-8%,-1%
CCOC(=O)C1CCN(c2ncnc3c2nc2n3CCCCC2)CC1,3%,-10%
O=C(Nc1ccc(Cl)c(C(F)(F)F)c1)c1ccc2c(c1)CCN2S(=O)(=O)c1ccccc1,?,?
Cc1ccc(O)c(NC(=O)CCS(=O)(=O)c2nc(-c3cccs3)cc(C(F)(F)F)n2)c1,?,?
COc1ccc2c(c1)CCc1c(C(=O)Nc3c(C)nn(Cc4ccccc4)c3C)noc1-2,?,?
COc1ccc(C)cc1NC(=O)c1cc(S(=O)(=O)N2CCC(C)CC2)cn1C,-15%,-1%
Cc1ccc(NC(=O)Cn2cc(C(=O)c3ccco3)c3ccccc32)cc1C,?,-15%
COc1ccc2cc(-c3nnc(Nc4ccccc4)s3)c(=O)oc2c1,-7%,13%
CN[C@H]1CCc2cc(OC)c(OC)c(OC)c2-c2ccc(OC)c(=O)cc21,-25%,·
COc1cc(NC(=O)c2ccccc2)ccc1NC(=O)c1cc2ccccc2o1,4%,?

# (more compounds)
SMILES,HTT prom inh,PMP22 txn prim
O=C(Cn1nc(-c2ccccc2)c2c(c1=O)CCCC2)Nc1ccc(F)c(Cl)c1,-30%,20%
O=C(NCc1noc2ccccc12)Nc1ccc(F)cc1F,-6%,-10%
CCOC(=O)CNC(=O)N1CCN(S(=O)(=O)c2ccc3c(ccn3C)c2)CC1,-8%,2%
CN1C(=O)C2(SCC(=O)N2c2cccc(C(F)(F)F)c2)c2ccccc21 (centres undefined),-31%,-25%
CNC(=O)C1CCN(Cc2cc3ccccc3n2Cc2ccccc2C)CC1,-26%,?
CCOC(=O)c1c(-c2ccccc2)oc2ccc(N(C(C)=O)S(=O)(=O)c3ccc(CC)cc3)cc12,?,?
Cc1cccc2sc(N(Cc3cccnc3)C(=O)Cc3ccccc3)nc12,?,?

# Some of these compounds in order of length of the SMILES, rising:
SMILES,HTT prom inh,PMP22 txn prim
CCOc1ccc(C2C=C(c3cccc(OC)c3)Nc3nnnn32)cc1 (centres undefined),-28%,-2%
COc1cc(Cl)c(C)cc1NS(=O)(=O)c1c(C)nc2sccn2c1=O,-8%,-19%
COc1ccc(OC)c(CNC(=O)CN2N=C(c3ccc(Cl)cc3)CCC2=O)c1,-8%,-1%
Cc1ncc(COC(=O)C(C)C)c2cc(C(=O)Nc3ccccc3C(F)(F)F)c(=O)oc12,-3%,-23%
Cc1cc(C)cc(NC(=O)C(Cc2ccccc2)NS(=O)(=O)c2ccc3c(c2)CCC(=O)N3)c1 (centres undefined),-15%,-8%
Cc1cccc(C)c1-n1ncc(C(=O)N2CCN(c3ncccn3)CC2)c1C1CCN(C(=O)OC(C)(C)C)CC1,-5%,?
